Screening data as filed in PubChem BioAssay.
hNpr1 antagonist: human Npr1 receptor antagonism; Potency, µM (top dose mostly 46.3 µM), for the others: at the top dose activity change, negative = inhibition, hits mostly inhibitors; AID 1347048; 1.6% of 76,000 active; HEK293 hNpr1 GloSensor cGMP, ANP-stimulated luminescence; active = well fitted inhibition curve with a large enough effect; inconclusive = small, poorly fitted or top-dose-only effect; inactive = no such curve, though single readings can be large or run the other way;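 further: nearly all actives have a fitted effect of over 60% in size; nearly all hits also lower the signal before the agonist is added; a reference antagonist and vehicle were the controls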
Target sequence (P16066 whole entry, looked up): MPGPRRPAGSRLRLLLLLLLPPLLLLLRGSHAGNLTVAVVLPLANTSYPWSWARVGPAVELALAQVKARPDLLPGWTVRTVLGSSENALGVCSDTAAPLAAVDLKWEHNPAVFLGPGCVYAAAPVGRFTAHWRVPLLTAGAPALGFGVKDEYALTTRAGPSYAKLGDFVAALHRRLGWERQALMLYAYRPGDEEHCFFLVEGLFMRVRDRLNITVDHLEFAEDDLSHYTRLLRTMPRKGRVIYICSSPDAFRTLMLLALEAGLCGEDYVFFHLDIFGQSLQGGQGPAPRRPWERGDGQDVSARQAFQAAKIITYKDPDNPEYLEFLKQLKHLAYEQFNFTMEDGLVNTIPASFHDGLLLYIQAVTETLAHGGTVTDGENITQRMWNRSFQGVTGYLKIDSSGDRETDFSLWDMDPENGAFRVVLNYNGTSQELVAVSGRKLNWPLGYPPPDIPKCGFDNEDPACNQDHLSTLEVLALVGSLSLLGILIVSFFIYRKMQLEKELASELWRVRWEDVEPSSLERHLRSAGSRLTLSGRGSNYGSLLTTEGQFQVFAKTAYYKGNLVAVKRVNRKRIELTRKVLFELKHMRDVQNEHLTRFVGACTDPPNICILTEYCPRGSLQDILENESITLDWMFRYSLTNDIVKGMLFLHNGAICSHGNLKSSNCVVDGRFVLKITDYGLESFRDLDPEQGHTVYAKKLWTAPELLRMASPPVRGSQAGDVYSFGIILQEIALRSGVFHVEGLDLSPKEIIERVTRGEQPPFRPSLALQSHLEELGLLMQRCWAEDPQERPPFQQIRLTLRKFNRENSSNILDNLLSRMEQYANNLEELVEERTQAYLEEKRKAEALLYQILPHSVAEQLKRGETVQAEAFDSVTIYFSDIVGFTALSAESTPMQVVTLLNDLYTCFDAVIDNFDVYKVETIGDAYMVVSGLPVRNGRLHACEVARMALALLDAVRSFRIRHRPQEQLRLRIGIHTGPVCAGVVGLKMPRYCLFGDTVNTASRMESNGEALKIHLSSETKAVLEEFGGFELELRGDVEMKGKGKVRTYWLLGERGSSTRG
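HEK293 cells stably expressing human Npr1 and cGMP GloSensor pGS-40F, loaded 2 h with 2% GloSensor reagent, given compound 30 min at room temperature. Luminescence read before and 20 min after 0.1 nM hNppA.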
An asterisk follows results filed as active; & = joins results of further samples; [ ] = remark or other dose. On the % scale 0 is the no-effect control and ±100 the full control effect; potency means the concentration at half of the fitted maximal effect. Not all compounds are listed, so the mix of outcomes need not match the whole.

For Fc1cccc(-c2cnc([C@@H]3COCCN3Cc3ccccc3)[nH]2)c1 the results were hNpr1 antagonist -21%[70.6 µM].
`Cc1cc(C)n(CCNC(=O)c2ccc3c(c2)[nH]c(=O)n3C2CCC(O)CC2)n1` (stereo not drawn) gave hNpr1 antagonist -3%.
Cc1ccc(C#N)c(N2CCN(C3CCCC3)C(CCO)C2)n1 (stereo not drawn) was read as hNpr1 antagonist 13%.
Screening Cc1ccc(S(=O)(=O)N2CCn3c(nn(CC4CC4)c3=O)C2)c(C)c1 returned hNpr1 antagonist 0%.
Screening O=C(Nc1ccc2c(c1)CN(CCc1ccc(F)cc1)C(=O)CO2)c1c(F)cccc1F returned hNpr1 antagonist -8%.
For Cc1ccc(Cn2c(C3CCN(C(=O)c4ccc(C)c(F)c4)CC3)n[nH]c2=O)cc1 the results were hNpr1 antagonist -3%.
Cc1ccccc1NC(=O)N1CCC(CCNC(=O)c2ccsc2)CC1 was read as hNpr1 antagonist 0%.
For O=C(NC1CC1)c1ccc2c(c1)CC(=O)N2Cc1ccc(F)cc1 the results were hNpr1 antagonist -2%.
Screening Cc1ccccc1-c1nc(N2CCOCC2)cc2c1CN(Cc1ccccc1)C2=O returned hNpr1 antagonist -28%[70.6 µM].
For O=C(CC1CCCCC1)N1CCC(n2cc(-c3nc(-c4ccccc4)no3)nn2)CC1 the results were hNpr1 antagonist 11µM*.
Screening Cn1cnnc1CC1CCN(Cc2nc3ccccc3n2C)CC1 returned hNpr1 antagonist 0%.
For COc1cccc(CN2C(=O)CCCCC2C(=O)NCCc2c[nH]c3ccc(OC)cc23)c1 (stereo not drawn) the results were hNpr1 antagonist -16%.
Screening O=C(c1cccnc1OC1CCN(C(=O)C2CC2)C1)N1CCOCC1 (stereo not drawn) returned hNpr1 antagonist -3%.
Cn1c(Cn2cccn2)nnc1C1CC(NC(=O)CN2CCCC2=O)C1 (stereo not drawn) was read as hNpr1 antagonist -17%.
Screening O=C(CN1C(=O)NC(c2ccccc2Cl)C2=C1COC2=O)Nc1cc(F)ccc1Cl (stereo not drawn) returned hNpr1 antagonist 1%.
COc1ccc(CNC(=O)CC2CCCCN(Cc3ccccc3)C2=O)cc1 (stereo not drawn) was read as hNpr1 antagonist -19%.
CCNC(=O)N1CC[C@H]2CC(=O)N(Cc3cccnc3)CC[C@H]2C1 was read as hNpr1 antagonist 7%[70.6 µM].
CCC(=O)Nc1ccc(C2(C(=O)NCC3CC3)CCCCC2)cc1 was read as hNpr1 antagonist 0%.
For Cc1ccc(CN2C(=O)[C@@H]3C[C@@H](O)CN3C3(CN(CC4CCCCC4)C3)C2=O)o1 the results were hNpr1 antagonist 0%[70.6 µM].
`O=C(c1cccnc1OC1CCN(S(=O)(=O)c2ccccc2F)C1)N1CCOCC1` (stereo not drawn) gave hNpr1 antagonist -2%.
Screening COC(=O)c1cc2n(n1)CCCN(C(=O)c1cc(-c3ccccc3O)n[nH]1)C2 returned hNpr1 antagonist -19%.
For COC(=O)c1cccc(-c2nc(C3CC(=O)N(c4ccc(F)cc4)C3)no2)c1 (stereo not drawn) the results were hNpr1 antagonist 5%.
NCCCC(=O)N1CCCC(N2CCN(c3cccc(Cl)c3)CC2)C1 (stereo not drawn) was read as hNpr1 antagonist -1%.
Screening Cc1ccc(C(=O)N2CCN(c3nc4ncccc4o3)CC2)cc1 returned hNpr1 antagonist 5%&8%[70.6 µM].
`COc1cc(NC(=O)Cn2nc3n(c2=O)CCCCC3)cc(OC)c1OC` gave hNpr1 antagonist 0%.
For CCS(=O)(=O)N[C@H](Cc1ccccc1)C(=O)N1CCOCCNC(=O)CC1 the results were hNpr1 antagonist -7%.
O=C(c1ccco1)N1CC[C@@H]2COCCN(Cc3ccccc3)[C@@H]2C1 was read as hNpr1 antagonist -14%.
For O=C1Nc2ccc(Br)cc2C(=O)N2CCN(C(=O)c3cccnc3)C[C@H]12 the results were hNpr1 antagonist -2%[70.6 µM].
CN1C(=O)CCCCC1C(=O)N1CCc2ccccc21 (stereo not drawn) was read as hNpr1 antagonist 3%.
`O=C([C@@H]1C[C@H](F)CN1C(=O)Nc1cc(F)cc(F)c1)N1CCCCC1` gave hNpr1 antagonist 0%.
`O=C(NC1CCN(c2cc(-c3ccc(Cl)cc3)[nH]n2)C1)c1ccc2[nH]ccc2c1` (stereo not drawn) gave hNpr1 antagonist -24%.
For O=C(c1ccccc1F)N1CCC2(CC1)C(=O)NCN2Cc1ccc(Cl)cc1 the results were hNpr1 antagonist 0%.
Cn1nc(C(=O)NCC(=O)N2CCCCCCNC(=O)CC2c2ccccc2)c2ccccc21 (stereo not drawn) was read as hNpr1 antagonist -2%.
For Cc1c(Cl)cccc1NC(=O)Cn1cccc1-c1nc(-c2ccccc2)no1 the results were hNpr1 antagonist -4%.
COc1ccccc1CC(=O)N1CCN(C(=O)c2nnn3c2COC(c2ccc(Cl)cc2)C3)CC1 (stereo not drawn) was read as hNpr1 antagonist 10µM*.
Screening Cc1ccccc1C(=O)N1CC2(Cc3ccccc3N([S+](C)(=O)[O-])C2)C1 returned hNpr1 antagonist 4%.
For O=C(c1ccccc1Cl)N1C[C@@H](CO)[C@H](c2nc(C3CC3)no2)C1 the results were hNpr1 antagonist -6%.
CSCC[C@@H]1NC(=O)c2cc(NC(=O)c3n[nH]c4c3CCCC4)ccc2NC1=O was read as hNpr1 antagonist -2%.
For CC[C@H]1CN(C(=O)C2CC2)CC[C@H]1CC(=O)O the results were hNpr1 antagonist -1%[70.6 µM].
Cn1ccnc1C(=O)N1C[C@@H](COCC2CC2)[C@H](c2ccncc2)C1 was read as hNpr1 antagonist -4%.
Screening Cc1ccc(-c2cc3c(=O)n(CCNC(=O)C4CCCCC4)ccn3n2)c(C)c1 returned hNpr1 antagonist inconclusive.
For Cn1c(=O)[nH]cc(CC(=O)N2CCC3(CC(=O)NC3=O)C2)c1=O (stereo not drawn) the results were hNpr1 antagonist 6%.
Screening CCN(Cc1nc(COC)no1)Cc1cn[nH]c1-c1ccc(F)cc1 returned hNpr1 antagonist -4%.
COC[C@H]1C[C@@H](NCc2cccc3c2OCO3)[C@H](O)[C@@H]1O was read as hNpr1 antagonist -2%[70.6 µM].
Screening COc1ccc(OC)c(S(=O)(=O)N2CCCOCCNC(=O)[C@@H]3CCCC[C@@H]32)c1 returned hNpr1 antagonist -4%.
Screening Cc1nc2c(c(-c3ccc(Cl)cc3)n1)CN([S+](=O)([O-])c1c(C)noc1C)CC2 returned hNpr1 antagonist -16%.
COc1ccccc1N1CCN(C(=O)CN2C(=O)C(c3ccccc3)=NC2(C)C)CC1 was read as hNpr1 antagonist 0%.
O=C1CC(c2ccccc2)N(C(=O)CNS(=O)(=O)c2ccccc2)CCCCCN1 (stereo not drawn) was read as hNpr1 antagonist 3%.
`COc1ccc(C(=O)N2CCC3(CC2)COc2ccccc2NC3=O)cc1` gave hNpr1 antagonist 0%.
Cc1ccc2c(c1)N1C(=O)OC[C@@H]1CCN(C(=O)c1cc(C)on1)C2 was read as hNpr1 antagonist -2%[70.6 µM].
For COc1ccc(-c2noc(-c3nc(C)no3)n2)cc1OC the results were hNpr1 antagonist -3%.
For CCc1noc(-c2cn(C3CCN(C(=O)c4ccc(Cl)cc4)C3)nn2)n1 (stereo not drawn) the results were hNpr1 antagonist inconclusive.
CCCS(=O)(=O)N1CCC(Oc2ccc(-c3noc(-c4ccccc4)n3)cc2)C1 (stereo not drawn) was read as hNpr1 antagonist -15%.
Screening O=C(c1cn2cc(-c3cccs3)n(CC3CC3)c(=O)c2n1)N1CCCC1 returned hNpr1 antagonist 2%.
For CCCn1cc2c3c(cccc31)CN(C(=O)c1cccc(C#N)c1)CC2 the results were hNpr1 antagonist -9%.
Screening CC(C)[C@@H]1CN(C(=O)c2cc(N3CCCCC3)ccc2Cl)C[C@H]1N(C)C returned hNpr1 antagonist 0%.
`Cc1onc(C(=O)N2CCC(CCOc3ccc(F)cc3)C2)c1Cn1cc(Cl)cn1` (stereo not drawn) gave hNpr1 antagonist inconclusive.
`Cc1csc(NC(=O)c2nc3c(o2)CCN(Cc2c(C)noc2C)CC3)n1` gave hNpr1 antagonist -1%[70.6 µM].
For Cc1cc(C)c(CNC(=O)c2nc(-c3ccc(CO)cc3)cc3c2ccn3C)c(=O)[nH]1 the results were hNpr1 antagonist 1%[70.6 µM].
`CC(C)NC(=O)N1CCN(C(=O)c2cccs2)[C@H](C(=O)N[C@@H](Cc2cccnc2)C(N)=O)C1` gave hNpr1 antagonist -2%.

Three neighbouring records already listed, for reference:
`Cc1csc(NC(=O)c2nc3c(o2)CCN(Cc2c(C)noc2C)CC3)n1` gave hNpr1 antagonist -1%[70.6 µM].
For Cc1cc(C)c(CNC(=O)c2nc(-c3ccc(CO)cc3)cc3c2ccn3C)c(=O)[nH]1 the results were hNpr1 antagonist 1%[70.6 µM].
`CC(C)NC(=O)N1CCN(C(=O)c2cccs2)[C@H](C(=O)N[C@@H](Cc2cccnc2)C(N)=O)C1` gave hNpr1 antagonist -2%.

Next part.
For O=C(c1ccccc1)N1CCC2(CC1)CC(=O)N(c1ccccc1)c1ccccc1O2 the results were hNpr1 antagonist 22%.
`O=C1NC2(CCN(Cc3ccccc3C(F)(F)F)C2)Oc2ccccc21` (stereo not drawn) gave hNpr1 antagonist 4%.
`CS(=O)(=O)N1CCCC(C(=O)NCc2ccccn2)CCNC(=O)CC1` (stereo not drawn) gave hNpr1 antagonist 1%.
`COc1ccc(CN[C@@H]2CCC[C@@H](C(=O)NCc3cc(C)on3)CC(=O)N(C)C2)cc1` gave hNpr1 antagonist -2%[70.6 µM].
O=C(NC1CCCc2c1cnn2-c1ccc(F)cc1F)c1ccsc1 (stereo not drawn) was read as hNpr1 antagonist 11µM*.
Screening COc1ccc(-c2cnc3[nH]cc(CC(=O)Nc4ccc(C(F)(F)F)cc4)c3c2)cc1 returned hNpr1 antagonist -18%[70.6 µM].
For CN(CCc1ccccn1)C(=O)c1ccc2c(c1)[nH]c(=O)n2C1CCC(O)CC1 (stereo not drawn) the results were hNpr1 antagonist -1%.
`COc1ccc(C(=O)N[C@@H]2CCC[C@@H]2C(=O)N(C)C)cn1` gave hNpr1 antagonist 4%.
COc1cccc(CN2C[C@@H]3C(C(=O)Nc4cncc(OC)c4)=NO[C@@H]3C2)c1 was read as hNpr1 antagonist -5%[70.6 µM].
`O=C(Cc1c[nH]c2ncc(-c3cccnc3)cc12)Nc1ccccc1` gave hNpr1 antagonist -1%[70.6 µM].
`CC[C@H]1CN(C(C)=O)CC[C@H]1CC(=O)NCc1ccccc1OC` gave hNpr1 antagonist 3%[70.6 µM].
For COc1ccc(-c2ccnc3nc(CCc4ccccc4)nn23)c(F)c1 the results were hNpr1 antagonist 5%.
Screening O=C1NC2(CCNCC2)C(=O)N1Cc1cccc(Cl)c1Cl returned hNpr1 antagonist -1%.
For COCCC(=O)N[C@H]1CC[C@]2(C)CCC([C@H](C)C(=O)NCc3cccs3)[C@H](O)[C@H]2[C@@H]1C (stereo partly drawn) the results were hNpr1 antagonist 4%.
COc1ccc(CNC(=O)N2CCCC(c3nn(C)c(=O)n3C3CCCC3)C2)cc1 (stereo not drawn) was read as hNpr1 antagonist 3%.
For COc1cccc(CNC(=O)Cn2ccn3nc(-c4ccccc4)c(CO)c3c2=O)c1 the results were hNpr1 antagonist -11%.
`COc1cccc(-c2nccn2C2COC3(CCCC3)C2)c1OC` (stereo not drawn) gave hNpr1 antagonist 2%.
Cc1cccc(CC(=O)N2CCC(c3noc(COCC4CC4)n3)CC2)c1 was read as hNpr1 antagonist -3%.
CC(C)c1nc(C(=O)N2CC[C@@](O)(C3CCOCC3)[C@H](C)C2)cs1 was read as hNpr1 antagonist 7%.
Screening CC(C)Oc1cc(F)cc(-c2cc(NCCO)ncn2)c1 returned hNpr1 antagonist 3%.
For CCN(CC)c1cc(CCC(=O)Nc2ccc(OC)c(OC)c2)ccn1 the results were hNpr1 antagonist -16%.
Screening CCCCc1nn(CC(=O)NCc2n[nH]c(C)n2)c(=O)n1CC returned hNpr1 antagonist 7%.
COc1ccc(-c2n[nH]c3c2CC(=O)N(CCOc2ccccc2)C3)cn1 was read as hNpr1 antagonist inconclusive.
`Cc1occc1C(=O)N1C[C@@H](COc2ccccc2)[C@H](C(N)=O)C1` gave hNpr1 antagonist 4%.

Ordered by number of heavy atoms (ascending): 4 of the compounds above
Screening CC(C)Oc1cc(F)cc(-c2cc(NCCO)ncn2)c1 returned hNpr1 antagonist 3%.
Screening CCCCc1nn(CC(=O)NCc2n[nH]c(C)n2)c(=O)n1CC returned hNpr1 antagonist 7%.
`Cc1occc1C(=O)N1C[C@@H](COc2ccccc2)[C@H](C(N)=O)C1` gave hNpr1 antagonist 4%.
Cc1cccc(CC(=O)N2CCC(c3noc(COCC4CC4)n3)CC2)c1 was read as hNpr1 antagonist -3%.

Next section.
For CC(C)CC(=O)N1CCn2c(nnc2[C@@H]2C[C@@H](O)CN2Cc2ccccc2)C1 the results were hNpr1 antagonist 6%.
`Cc1cc(NCC(C)n2ccnc2)n2nc(C)c(C)c2n1` (stereo not drawn) gave hNpr1 antagonist 8%.
For O=C1c2c(nc(COc3cccc(C(F)(F)F)c3)n2Cc2ccccc2)NCCN1CC1CC1 the results were hNpr1 antagonist -8%.
Screening C=CCN1CC2(CCC1=O)CCN(C(=O)C1CC=CCC1)CC2 (stereo not drawn) returned hNpr1 antagonist 7%.
Screening CC(C)Cc1cc(CC2(NC3CCCCC3)COC2)no1 returned hNpr1 antagonist -1%[70.6 µM].
Screening CC(=O)NC[C@H]1CCN(S(=O)(=O)c2ccc3c(c2)OCCO3)C[C@H]1N(C)C returned hNpr1 antagonist 1%.
`CC1(C)[C@H](Cc2cc(CN3CCCCC3)on2)C[C@@H]1N` gave hNpr1 antagonist 1%[70.6 µM].
For O=C(NCc1cc(F)cc(F)c1)c1nnn2c1COC(c1ccc(Br)cc1)C2 (stereo not drawn) the results were hNpr1 antagonist -4%.
`O=C1CC2(CCN(CC3CCCCC3)CC2)Oc2cc(Cl)ccc21` gave hNpr1 antagonist -2%.
